Compound activity (PubChem BioAssay)
2A firefly – Primary qHTS Assay for Foot and Mouth Disease Virus Antivirals against NCGC Sytravon and CBC Compound Libraries: Firefly Luciferase Signal | HEK cells with a luciferase reporter of 2A StopGo recoding | Potency, µM (titrated, usually from 57.5 µM), for inactives: top-dose signal change, negative = less light | 120,000 tested, 0.23% active; active = well fitted falling curve with a large enough effect; inconclusive = small, poorly fitted or top-dose-only effect; inactive = no such curve, though single readings can be large or run the other way; further: nearly all actives have a fitted effect of over 60% in size; overnight with compound
StopGo RLuc – Primary qHTS Assay for Foot and Mouth Disease Virus Antivirals against NCGC Sytravon and CBC Compound Libraries: Renilla Luciferase Signal; HEK cells with a luciferase reporter of 2A StopGo recoding; 120,000 tested, 0.32% active; Potency, µM (titrated, usually from 57.5 µM), for the others: at the top dose signal change, negative = less light; active means well fitted falling curve with a large enough effect; inconclusive means small, poorly fitted or top-dose-only effect; inactive means no such curve, though single readings can be large or run the other way; further: nearly all actives have a fitted effect of over 55% in size; overnight with compound
* marks the source's active call; other numbers are inactive results; ? = inconclusive; [ ] = remark or other dose. On the % scale 0 is the no-effect control and ±100 the full control effect; potency means the concentration at half of the fitted maximal effect. The list is partial (hit frequency here may not be typical).

Results follow in this order: 2A firefly | StopGo RLuc
1	Cc1cccc(NC(=O)C2(C)Cc3ccccc3C(=O)O2)c1 (stereo unspecified)
→ 93%[activator] | 11%
2	CCC(=O)Nc1ccccc1-c1nc2ccccc2n(CC(=O)c2ccc(Cl)cc2)c1=O
→ -15% | -1%
3	CCOC(=O)c1sc(Nc2ccc(C)cc2C)nc1C
→ 80%[activator] | 15%
4	CCCn1c(=O)c2sccc2n2c(CCCC(=O)Nc3ccc(C)c(F)c3)nnc12
→ -18% | -15%
5	O=C(Nc1ccc2oc(-c3ccc4ccccc4c3)nc2c1)c1ccccc1F
→ 26% | -14%
6	CC(=O)N1CCN(C(C(=O)O)c2cn(CC(=O)O)c3ccccc23)CC1 (stereo unspecified)
→ 15% | 6%
7	O=C1c2[nH]nc(-c3ccccc3O)c2C(c2ccc(Cl)cc2)N1CCc1ccccc1 (stereo unspecified)
→ ? | -11%
8	CC(C)CCN1C(=O)c2ccccc2CC1(C)C(=O)NC1CCCCC1 (stereo unspecified)
→ 0% | 2%
9	N#C/C(=C\c1ccccc1OCc1ccc2ccccc2c1)c1nc2ccccc2[nH]1
→ 129%[activator] | 15%
10	Cc1ccccc1OCCCOc1ccc(Cl)cc1/C=N/NC(=O)c1ccccc1
→ 18% | -4%
11	CCC(CC)NC(=O)COC(=O)c1ccc2nc(C)c(C)nc2c1
→ 13% | -5%
12	O=C(O)C1CCN(S(=O)(=O)c2cc(Cl)cc(Cl)c2)CC1
→ 5% | -7%
13	Cc1c(-c2nc(-c3ccc4c(c3)[nH]c(=O)n4C)no2)cccc1[N+](=O)[O-]
→ -3% | -1%
14	COc1ccc(NC(=O)CCc2nnc3n(C)c(=O)c4sccc4n23)cc1
→ 20% | -13%
15	CCn1cnc2c1c(=O)n(CC(=O)OC1CCCCC1)c(=O)n2Cc1ccccc1
→ -12% | -11%
16	CCN(CC(=O)Nc1c(F)cccc1F)C(=O)CNC(=O)c1ccc(C)s1
→ -18% | 17%
17	COc1ccc(NC(=O)c2c(N)c(C(=O)c3ccc(C)cc3)n3ccccc23)cc1OC
→ -8% | -12%
18	COc1ccccc1-c1nc(Cn2nc(C)c3c(C)onc3c2=O)c(C)o1
→ -7% | -1%
19	CCCOC(=O)c1c(-c2ccccc2)csc1NC(=O)c1ccoc1C
→ 80%[activator] | -3%
20	CCOC(=O)c1sc(Nc2ccc(C(C)=O)cc2)nc1C
→ 207%[activator] | -3%

Some of the entries so far, in markdown:
| entry | SMILES | 2A firefly | StopGo RLuc |
| --- | --- | --- | --- |
| 16 | CCN(CC(=O)Nc1c(F)cccc1F)C(=O)CNC(=O)c1ccc(C)s1 | -18% | 17% |
| 7 | O=C1c2[nH]nc(-c3ccccc3O)c2C(c2ccc(Cl)cc2)N1CCc1ccccc1 (stereo unspecified) | ? | -11% |
| 12 | O=C(O)C1CCN(S(=O)(=O)c2cc(Cl)cc(Cl)c2)CC1 | 5% | -7% |
| 4 | CCCn1c(=O)c2sccc2n2c(CCCC(=O)Nc3ccc(C)c(F)c3)nnc12 | -18% | -15% |
| 17 | COc1ccc(NC(=O)c2c(N)c(C(=O)c3ccc(C)cc3)n3ccccc23)cc1OC | -8% | -12% |
| 18 | COc1ccccc1-c1nc(Cn2nc(C)c3c(C)onc3c2=O)c(C)o1 | -7% | -1% |
| 9 | N#C/C(=C\c1ccccc1OCc1ccc2ccccc2c1)c1nc2ccccc2[nH]1 | 129%[activator] | 15% |

(listing goes on)
Results follow in this order: 2A firefly | StopGo RLuc
21	Cc1cccc(NC(=S)NNC(=O)C(c2ccccc2)c2ccccc2)c1C
→ 15% | 89%[activator]
22	CC(O)CNc1nc2c(c(=O)n(Cc3ccccc3Cl)c(=O)n2C)n1C (stereo unspecified)
→ -2% | -12%
23	CC(C)c1ccc(NC(=O)CN2C(=O)COc3ccc(S(=O)(=O)N4CCCCC4)cc32)cc1
→ -3% | 97%[activator]
24	Cc1ccc(S(=O)(=O)N2CCCCC2)cc1NC(=O)c1cc(=O)c2ccccc2o1
→ -26% | -14%
25	O=C(/C=C/c1cccnc1)NCCc1ccc(F)cc1
→ 0% | -18%
26	CCOC(=O)C(O)(c1ccc(N(C)C(C)=O)cc1)C(F)(F)F (stereo unspecified)
→ -3% | 4%
27	OCC1CCN(c2ccccc2)C1 (stereo unspecified)
→ 6% | -12%
28	CCCCC(=O)NC1(C(F)(F)F)C(=O)Nc2c1c(=O)[nH]c(=O)n2-c1ccc(C)c(C)c1 (stereo unspecified)
→ -17% | -17%
29	CCOC(=O)c1cc(S(=O)(=O)Nc2ccccc2OCC)[nH]n1
→ ? | 17%
30	COC(=O)CNC(=O)c1cc(-c2ccncc2)nc2ccccc12
→ 14% | 0%
31	COCCn1c(-c2cc(Cl)ccc2OC)n[nH]c1=S
→ -6% | -10%[1.06 µM]
32	CCCNC(=O)c1ccc(OCc2nnc(C(=O)Nc3ccccc3F)s2)cc1
→ -3% | -3%
33	Cc1cc(S(=O)(=O)Nc2ccccn2)ccc1Cl
→ -7% | 56%[activator]
34	Cc1ccc(CNc2nc(-c3ccco3)nn2C(=O)c2ccccc2[N+](=O)[O-])cc1
→ 91%[activator] | -12%
35	Cc1cc(C)c(NC(=O)C2CCN(c3nn4c(=O)cc(C)nc4s3)CC2)c(C)c1
→ -12% | -8%
36	Cc1ccc2nc(NC(C)(C)CO)nc(-c3ccccc3)c2c1
→ 0% | -7%
37	Cc1nnc(NC(=O)c2cc(S(=O)(=O)N(C)C)ccc2F)s1
→ 0% | -6%
38	O=C(NCCc1ccccc1)c1ccc2c(c1)CCN2S(=O)(=O)c1ccccc1
→ 42%[activator] | 194%[activator]
39	COCCn1c(CCC(=O)Nc2ccc(OC)c(OC)c2)nc2cccnc21
→ -11% | -22%
40	Cc1csc2nc(-c3cccc(NC(=O)c4ccccc4F)c3)cn12
→ 116%[activator] | 20%
41	CCC(C)NC(=O)Cn1c(=O)ccc2cc(S(=O)(=O)N3CCCC3)ccc21 (stereo unspecified)
→ 9% | -5%
42	CCOC(=O)N1CCN(c2ncc3c(n2)CC(c2ccccc2O)CC3=O)CC1 (stereo unspecified)
→ 18% | 15%
43	Cc1ccc(S(=O)(=O)N(CC(=O)NCCc2ccccc2)Cc2c(F)cccc2Cl)cc1
→ -11% | 81%[activator]
44	Cc1cccc(OCCSc2nc3ccc(NC(=O)c4cccs4)cc3s2)c1
→ -19% | 16%
45	Cc1cc(C)c2nc(SCC(=O)NCC(C)C)cc(C)c2c1
→ 0% | -5%
46	O=c1oc2ccccc2c(N2CCCC2)c1NS(=O)(=O)c1ccc(Cl)s1
→ -8% | 7%
47	O=C(O)c1cncc(O)c1
→ 4% | -11%
48	CCOCCCNc1nc2c(c(=O)n(C)c(=O)n2C)n1Cc1ccc(Cl)cc1
→ -12% | -8%
49	CCOc1ccc(NC(=O)Cn2ccn(-c3ccc(F)c(F)c3)c(=O)c2=O)cc1
→ -4% | -9%
50	CN=c1scc(-c2c(-c3ccccc3)n(C)c3ccccc23)n1C
→ -1% | -10%
51	Cc1ccc2c(c1)C(C)(C)C1(/C=C/c3ccccc3Cl)NC(=O)CN21 (stereo unspecified)
→ 0% | 16%
52	CCOC(=O)c1ccc(N2C(=O)c3n[nH]c(-c4ccco4)c3C2c2ccc(O)c(OCC)c2)cc1 (stereo unspecified)
→ -26% | -15%
53	CC1CCc2nc3ncn(CC(=O)Nc4cccc(C#N)c4)c(=O)c3cc2C1 (stereo unspecified)
→ -1% | -6%
54	O=C(CSc1nccn1Cc1ccc(F)cc1)NCc1ccc(F)cc1
→ 3% | -3%
55	CCOC(=O)c1cccc(NC(=O)c2cc(C)nc3c2c(C)nn3-c2ccc(C)cc2)c1
→ -6% | 91%[activator]
56	Cc1ccc(N2NC3(CCCCC3)NC2=S)cc1C
→ 0% | -8%
57	CCC1Oc2ccc(C)cc2N(CC(=O)NCCc2ccccc2)C1=O (stereo unspecified)
→ -15% | -7%
58	CCOc1ccc(-c2nonc2NC(=O)c2oc3ccc(Br)cc3c2C)cc1
→ ? | ?
59	Cc1cc(NC(=O)C2CCN(S(=O)(=O)c3cccc4nsnc34)CC2)ccc1Br
→ -6% | -5%
60	Cc1c(Cl)cccc1NC(=O)C1CCCN(c2ncnc3onc(C)c23)C1 (stereo unspecified)
→ 2% | 3%

Structures above that have two or more sulfur atoms (4):
Results follow in this order: 2A firefly | StopGo RLuc
37	Cc1nnc(NC(=O)c2cc(S(=O)(=O)N(C)C)ccc2F)s1
→ 0% | -6%
44	Cc1cccc(OCCSc2nc3ccc(NC(=O)c4cccs4)cc3s2)c1
→ -19% | 16%
46	O=c1oc2ccccc2c(N2CCCC2)c1NS(=O)(=O)c1ccc(Cl)s1
→ -8% | 7%
59	Cc1cc(NC(=O)C2CCN(S(=O)(=O)c3cccc4nsnc34)CC2)ccc1Br
→ -6% | -5%

Structural class, those above containing an aryl methoxy group
Results follow in this order: 2A firefly | StopGo RLuc
14	COc1ccc(NC(=O)CCc2nnc3n(C)c(=O)c4sccc4n23)cc1
→ 20% | -13%
17	COc1ccc(NC(=O)c2c(N)c(C(=O)c3ccc(C)cc3)n3ccccc23)cc1OC
→ -8% | -12%
18	COc1ccccc1-c1nc(Cn2nc(C)c3c(C)onc3c2=O)c(C)o1
→ -7% | -1%
31	COCCn1c(-c2cc(Cl)ccc2OC)n[nH]c1=S
→ -6% | -10%[1.06 µM]
39	COCCn1c(CCC(=O)Nc2ccc(OC)c(OC)c2)nc2cccnc21
→ -11% | -22%

(continued)
Results follow in this order: 2A firefly | StopGo RLuc
61	Cc1cc(C)cc(NC(=O)C(=O)NCC(c2ccc3c(c2)OCO3)N2CCOCC2)c1 (stereo unspecified)
→ -21% | -5%
62	CC(=O)Nc1cccc(C(=O)OCC(=O)N2CCOCC2)c1
→ 123%[activator] | 5%
63	O=C(Nc1c(NCc2ccccc2)c2ccccc2oc1=O)c1ccc(Br)o1
→ -2% | -2%
64	CC1c2cc3c(cc2CCN1C(=O)c1ccc(F)cc1F)OCCCO3 (stereo unspecified)
→ 0% | ?
65	NS(=O)(=O)c1ccc(NC(=O)C2=C(c3ccccc3)SCCO2)cc1
→ -5% | -6%
66	CC(=O)Nc1ccc(NC(=O)c2cccc(N(C)C)c2)cc1
→ 34%[activator] | 0%
67	Cc1ccc(NC(=O)CSc2cn(CC(=O)N3CCOCC3)c3ccccc23)cc1Cl
→ 25% | 33%[activator]
68	O=C(Cn1c(=O)n2nc(-c3ccccc3)nc2c2ccccc21)Nc1ccccc1C(F)(F)F
→ -16% | -6%
69	Cc1ccc2c(c1)NC(=O)C(CC(=O)Nc1cc(Cl)ccc1C)O2 (stereo unspecified)
→ -3% | -6%
70	O=C(O)c1cccnc1Sc1cccc(C(F)(F)F)c1
→ 0% | 10%
71	CCOC(=O)c1cc(-c2ccccc2)n(CC(=O)Nc2ccc(OC)cc2OC)c1C
→ -22% | -15%
72	COc1ccc(OC)c(NC(=O)c2csnn2)c1
→ 6% | -3%
73	CCCC(=O)Nc1ccc2oc(-c3ccc(F)cc3)nc2c1
→ 128%[activator] | 11%
74	Cc1cccc(-c2noc(C34CC5CC(CC(C5)C3)C4)n2)c1
→ 90%[activator] | 16%
75	Cc1c(OCC(=O)OC(C)(C)C)ccc2c(-c3ccccc3)cc(=O)oc12
→ -2% | -14%
76	COC(=O)CN1C(=O)CSc2ccc(S(=O)(=O)Nc3cccc(Cl)c3C)cc21
→ ? | 86%[activator]
77	O=C(CCC1N=C2c3ccccc3N=C(SCc3cccc(F)c3)N2C1=O)NCCc1ccccc1 (stereo unspecified)
→ -3% | -3%
78	CN(C)c1ccc(C=Nc2ccc(I)cc2)cc1
→ 33%[activator] | 9%
79	CCN(CC)c1ccc(NS(=O)(=O)c2cc(-c3cc(C)no3)ccc2C)c(C)c1
→ -3% | 117%[activator]
80	COc1ccc(Cl)cc1NC(=O)C(C)N1CCN(S(=O)(=O)Cc2ccccc2)CC1 (stereo unspecified)
→ -13% | -4%
81	CCCn1nc(C(=O)Nc2nc3ccccc3[nH]2)c2ccccc2c1=O
→ 56%[activator] | 33%[activator]
82	COc1ccc(NC(=O)C(C)n2c(C)c3cnn(-c4ccccc4)c(=O)c3c2C)c(OC)c1 (stereo unspecified)
→ 9% | -7%
83	O=C(NC1CCCc2ccccc21)c1ccc2c(c1)sc1nc(-c3ccc(F)cc3)cn12 (stereo unspecified)
→ 73%[activator] | 26%
84	COc1ccc(C2CC(=O)c3cc(-c4nc(-c5cccc(Cl)c5)cs4)c(=O)[nH]c3C2)cc1OC (stereo unspecified)
→ -4% | -5%
85	Cc1ccc(C(=O)Nc2ccc(OCc3cc(=O)n4c5c(sc4n3)CCCC5)cc2)cc1
→ 11% | 4%
86	Cc1noc(C(C)N2CCN(c3oc(C4CC4)nc3C#N)CC2)n1 (stereo unspecified)
→ 7% | 1%
87	CCc1nnc(SCC(=O)Nc2cc(Cl)ccc2C)n1-n1cccc1
→ 4% | 4%
88	Cc1cn2c(=O)cc(COC(=O)c3cccc(NC(=O)C(C)Oc4ccccc4)c3)nc2s1 (stereo unspecified)
→ -23% | -5%
